PABP FP inh: blocks human PABP binding to poly(A) RNA; hit rate 1% among 290,000; P11940; fluorescence polarization; inhibition, % at 35 µM; AID 2014;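 active = 50% or more with normal probe brightness, or confirmed in later tests; inconclusive = above 50% with abnormal brightness, or retests that disagree; inactive = below 50% or failed in later tests; about a fifth of its hits are not listed in these tables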;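 also: calls also rest on retests at 20 µM and on dose response follow-up; controls were probe without protein and protein plus probe with vehicle; some compounds called inactive have numbers as strong as hits; many hits fall short of the cut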
MT1-MMP act inh: blocks activation of human MT1-MMP; P50281; HT1080 RFP-PRO-GFP cells, GFP/RFP ratio fluorescence, overnight; percent of plate control window, DMSO zero; GFP/RFP ratio change, % at 20 µM; hit rate 0.061% among 360,000; AID 651647;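 active = GFP/RFP ratio change of at least 30% with cell ATP level not reduced by more than half and red fluorescence within 50% of control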; also: strong numbers were not always called active
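Assay system: HT1080 RFP-PRO-GFP cells | Dosing: 20 µM single dose, 1% DMSO | Incubation: Cells overnight before dosing, compound overnight, 37 °C, 5% CO2 | Evaluation: GFP/RFP fluorescence ratio | Control set: DMSO-only wells and HT1080 RFP-L50D-GFP cell wells as references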
CSC inhib: cancer stem cell inhibition | cancer stem cell-like cells viability, luminescence | inhibition, % at 7.5 µM | hit rate 1.1% among 300,000;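 active = mean at 75% or more and at least half the replicates too; inconclusive = mean and replicates disagree; tested in HMLE shEcad cells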;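 also: 0% = median of negative and 100% = median of positive control wells; the first replicate is given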
Env fusion inh: blocks HIV Env-driven cell-cell fusion. hit rate 1.1% among 360,000. inhibition, % at 12.3 µM. HeLa-JRFL Env/CEM21 cell fusion, luciferase;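 active = mean replicate inhibition score of at least 50 and every replicate individually at or above 50; inconclusive = only one of the two criteria met; inactive = mean below 50 and not all replicates reaching 50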;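 also: 0% = plate neutral controls and 100% = maraviroc near 300 nM; one replicate is shown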
Yeast UUG start: yeast start codon fidelity modulation; AID 602363; S. cerevisiae UUG-firefly luciferase reporter, luminescence/redox ratio; activity score, % at 18.7 µM; hit rate 0.13% among 350,000;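 active = replicate mean at a twofold rise or more, about +100% in these data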;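 also: firefly luciferase made from a UUG start codon reports start codon fidelity; reporter light over untreated wells divided by growth signal over untreated wells; some hits fall short of that in this replicate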
Rce1 inhib: yeast Ras-converting enzyme inhibition. Q03530. yeast membranes, quenched prenylated peptide cleavage fluorescence. calls only. hit rate 0.27% among 290,000;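 active = fall in fluorescence gain of 50% or more versus controls, with final raw signal at or below 3038400; inconclusive = same 50% fall but final raw signal above 3038400; inactive = fall in fluorescence gain under 50%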;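 also: plate controls were neutral control wells for no effect and wells lacking membranes for full effect; tested at 10 µM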
Target sequence (Q03530 whole entry, looked up): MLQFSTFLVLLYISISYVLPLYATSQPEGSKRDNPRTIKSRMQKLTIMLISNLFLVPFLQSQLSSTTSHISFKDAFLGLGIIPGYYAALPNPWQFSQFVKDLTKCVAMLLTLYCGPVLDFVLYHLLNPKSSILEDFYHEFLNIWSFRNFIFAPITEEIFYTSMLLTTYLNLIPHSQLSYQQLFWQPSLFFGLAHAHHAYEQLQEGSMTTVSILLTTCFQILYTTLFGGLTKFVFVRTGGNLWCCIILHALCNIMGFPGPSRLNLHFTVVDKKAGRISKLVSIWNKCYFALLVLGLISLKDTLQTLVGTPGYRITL
eIF4H FP inh: inhibitors of RNA binding by human eIF4H; Q15056; eIF4H fluorescence polarization binding assay; inhibition, % at 35 µM; hit rate 0.94% among 290,000; AID 2012;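 active = 50% or more with normal probe brightness, or confirmed in later tests; inconclusive = above 50% with abnormal brightness, or retests that disagree; inactive = below 50% or failed in later tests; about a fifth of its hits are not listed in these tables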;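 also: calls also rest on retests at 20 µM and on dose response follow-up; 0% = protein and probe with vehicle and 100% = probe without protein; strong numbers were not always called active; many hits fall short of the cut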
MT1-MMP act inh RFP: recorded beside MT1-MMP act inh, whose call it bears; RFP signal change, %; measured here: RFP expression control read;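 0 = vehicle wells; hits needed this value within 50% of zero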
Active calls of the source: *; i = inactive; ? = inconclusive; nt = no result given; & = joins results of further samples; [ ] = another dose, or the depositor's remark.

Order of values: CSC inhib | Yeast UUG start | Env fusion inh | eIF4H FP inh | MT1-MMP act inh | MT1-MMP act inh RFP | PABP FP inh | Rce1 inhib
> CCCCN(C(=O)CCNC(=O)NC12CC3CC(CC(C3)C1)C2)c1c(N)n(CCC)c(=O)[nH]c1=O
→ -5 | 3 | 0 | nt | -4 | 3 | nt | i
> O=C(CCc1nc2ccccc2c(=O)[nH]1)Nc1nc(-c2cccs2)cs1
→ 0 | nt | -13 | nt | 1 | -1 | nt | i
> Cc1sc(NC(=O)CSc2nnc(-c3ccccc3)o2)c(C#N)c1C
→ 9 | -21 | 14 | 2 | -3 | 3 | 5 | i
> CCOC(=O)c1cnc2ccc(C(=O)OC)cc2c1Nc1ccc(C(=O)O)cc1
→ -10 | nt | -20 | -2 | 0 | 1 | 3 | i
> COc1ccccc1CCNC(=O)c1ccccc1SCC(=O)N1CCCC1
→ 1 | -12 | nt | nt | -4 | 2 | nt | nt
> COc1ccc(NC(=O)N(C)C[C@H]2Oc3c(NC(=O)NC4CCCCC4)cccc3C(=O)N([C@H](C)CO)C[C@@H]2C)cc1
→ nt | -13 | -2[16.7 µM] | nt | 0 | 3 | nt | nt
> Cc1ccc2c(c1)N(S(=O)(=O)c1ccc3c(c1)NC(=O)CC(=O)N3)CCO2
→ nt | 2 | -14 | 2 | -6 | 0 | -4 | i
> O=C1c2ccccc2NC(c2ccncc2)N1c1ccccn1 (stereo not given)
→ -2 | -10 | nt | -9 | 6 | 2 | 3 | i
> COc1cccc(NC(=O)Cn2c(=O)oc3cc(S(=O)(=O)N4CCCC4)ccc32)c1
→ -1 | 4 | 8 | -8 | 3 | -1 | 5 | i
> CCOC(=O)c1c(NC(=O)/C=C/C(=O)O)sc(C)c1-c1ccc(C(C)(C)C)cc1
→ 109* | nt | 2 | -6 | -12 | -23 | -11 | i
> C#Cc1ccc(CN2CCCC(C(=O)Nc3ccccc3Oc3cccnc3)C2)cc1 (stereo not given)
→ 4 | 4 | -1 | nt | -4 | -2 | nt | i
> C/C(=N\Nc1ccc([N+](=O)[O-])cc1)c1ccc(O)cc1
→ 28 | nt | -62 | -9 | -8 | -2 | 0 | i
> CCOC(=O)c1c(NC(=O)c2ccco2)sc(C(=O)N2CCCC2)c1C
→ -1 | -11 | -56 | -11 | 1 | -1 | -8 | i
> CCc1ccc(NC(=O)CSc2nc(=O)n3cc(C)ccc3n2)cc1
→ -3 | 4 | 38 | nt | 0 | -1 | nt | i
> CCOC(=O)c1sc(=S)n(-c2ccccc2Cl)c1SC
→ 1 | -20 | nt | -1 | -1 | 2 | 5 | i
> CCn1cc(C(=O)O)c(=O)c2cc(F)c(N3CCN(C(=S)NC(=O)c4ccc(F)cc4)CC3)cc21
→ -6 | -29 | -1 | -4 | -7 | -3 | 2 | i
> O=C(O)C1CCN(C(=O)c2cccc3ccccc23)CC1
→ -10 | -12 | -8 | 9 | nt | nt | 15 | i
> O=C(Nc1cc2c3c(c1)CC(=O)N3CCC2)c1ccc(Cl)cc1
→ 5 | -10 | 85* | nt | 1 | 3 | nt | i
> COc1ccc2oc(C(=O)OCC(=O)N(Cc3ccccc3)C(C)C)c(C)c2c1
→ -4 | nt | -19 | nt | 3 | -1 | nt | i
> CC(C)c1cc2c(c(O)c1O)[C@@]13CCCC(C)(C)C1CC2OC3=O (stereo not given in full)
→ 60 | -7 | nt | 2 | -2 | 0 | -3 | i
> O=C(CC1SC(=Nc2ccc3c(c2)OCCO3)NC1=O)Nc1ccc(F)cc1F (stereo not given)
→ -10 | -26 | 7 | -2 | 2 | 0 | -3 | i
> COCCn1c(=O)[nH]c2cc(C(=O)NCCc3ccc(OC)c(OC)c3)ccc2c1=O
→ nt | -22 | -1 | -4 | 1 | 3 | 2 | i
> COc1ccc(OC)c(CN2CCCC(CCC(=O)N(C)CCc3ccccn3)C2)c1 (stereo not given)
→ 7 | nt | -1 | 0 | -4 | 1 | -2 | i
> CCNC(=O)C(=O)NCC1OCCCN1S(=O)(=O)c1ccc(F)cc1C (stereo not given)
→ -2 | -3 | -11 | -13 | -1 | -1 | 0 | i
> COc1ccc2oc(C)c(C(=O)Cn3ccnc3)c2c1
→ 13 | -6 | nt | -8 | 5 | -3 | 7 | i
> COc1ccc(OC)c(-n2cc3c(=O)n(C)c(=O)n(C)c3c2)c1
→ 15 | -29 | nt | ? | -3 | 4 | ? | i
> COC(C[C@@H]1O[C@@H]1[C@@H](O)[C@@H](C)OCc1ccccc1)OC
→ nt | -9 | -12 | -12 | 1 | -1 | -11 | i
> COc1ccccc1NC(=O)CC(NCCN(C)C)C(=O)O (stereo not given)
→ -5 | -13 | -70 | -3 | 3 | 1 | 3 | i
> Cn1c(COc2cccc3cccnc23)nnc1SCC(=O)O
→ 0 | nt | 5 | -5 | 0 | 0 | 10 | i
> CCN(CC)c1ccc(-n2c(C)cc(C=O)c2C)cc1
→ nt | -11 | nt | -2 | -7 | -13 | 11 | i

A stretch from the list above, as a working copy:
Order of values: CSC inhib | Yeast UUG start | Env fusion inh | eIF4H FP inh | MT1-MMP act inh | MT1-MMP act inh RFP | PABP FP inh | Rce1 inhib
> O=C(Nc1cc2c3c(c1)CC(=O)N3CCC2)c1ccc(Cl)cc1
→ 5 | -10 | 85* | nt | 1 | 3 | nt | i
> COc1ccc2oc(C(=O)OCC(=O)N(Cc3ccccc3)C(C)C)c(C)c2c1
→ -4 | nt | -19 | nt | 3 | -1 | nt | i
> CC(C)c1cc2c(c(O)c1O)[C@@]13CCCC(C)(C)C1CC2OC3=O (stereo not given in full)
→ 60 | -7 | nt | 2 | -2 | 0 | -3 | i
> O=C(CC1SC(=Nc2ccc3c(c2)OCCO3)NC1=O)Nc1ccc(F)cc1F (stereo not given)
→ -10 | -26 | 7 | -2 | 2 | 0 | -3 | i
> COCCn1c(=O)[nH]c2cc(C(=O)NCCc3ccc(OC)c(OC)c3)ccc2c1=O
→ nt | -22 | -1 | -4 | 1 | 3 | 2 | i

Later entries:
Order of values: CSC inhib | Yeast UUG start | Env fusion inh | eIF4H FP inh | MT1-MMP act inh | MT1-MMP act inh RFP | PABP FP inh | Rce1 inhib
> CC(=O)O/N=C(\N)c1ccc(-c2csnn2)cc1
→ 10 | -13 | -1 | -7 | 2 | -3 | 1 | i
> COc1ccc(NC(=O)c2ccc(S(=O)(=O)NCc3cccnc3)cc2)cc1
→ 0 | -11 | 11 | 2 | 2 | -10 | 11 | i
> CCOC(=O)C1=CN(CC)S(=O)(=O)NC1CC (stereo not given)
→ nt | -17 | -3 | nt | 2 | 6 | nt | nt
> Cc1cc(NS(=O)(=O)c2ccc(NC(=O)CSc3nc4sc(C(=O)O)c(C)c4c(=O)[nH]3)cc2)no1
→ nt | -10 | 12 | 4 | 0 | 0 | 12 | i
> CS(=O)(=O)N1CCN(c2nnc(-c3ccccc3)c3ccccc23)CC1
→ -11 | -5 | -40 | 4 | 4 | 5 | -9 | i
> COc1ccc(C(=O)Nc2cnccn2)cc1[N+](=O)[O-]
→ 2 | -23 | -25 | 4 | 1 | 1 | 2 | i
> CC(C)c1ccc(CNc2nnnn2C)cc1
→ -20 | -11 | -5 | -2 | 3 | -3 | -1 | i
> O=C(CC1Sc2ccccc2NC1=O)NCc1ccc(Cl)cc1 (stereo not given)
→ -9 | -16 | 6 | -5 | 6 | 0 | -5 | i
> CCOC(=O)COc1coc(CN2CCN(c3ccc(F)cc3)CC2)cc1=O
→ -5 | -6 | -7 | -3 | 3 | 4 | -13 | i
> CN1CCN(C(=S)NC(=O)c2ccco2)CC1
→ -1 | nt | 1 | -4 | 3 | 3 | 6 | i
> CCOc1cc(/C=C2\SC(=N)N(c3nccs3)C2=O)ccc1OCCN1CCOCC1
→ 34 | -28 | 5 | 15 | 5 | -1 | -12 | i
> COCCNC(=S)Nc1ccccn1
→ 8 | nt | 3 | 15 | -3 | 6 | 22 | i
> Cc1c(Cl)cccc1NC(=O)Cn1nc(C)n2cccc2c1=O
→ -10 | -19 | 0 | -10 | 1 | 3 | 8 | i
> Cc1cc(NC(=O)CSc2ccccc2)no1
→ -1 | -2 | -18 | -11 | -1 | -5 | -2 | i
> CCc1ccc2nc(N3CCN(C(=O)C(C)(C)C)CC3)sc2c1
→ -5 | -10 | -1 | -6 | 6 | -8 | -1 | i
> Cc1ccc(C)c(NC(=S)N(CCc2nc3cc(C)c(C)cc3[nH]2)Cc2cccnc2)c1
→ 14 | -8 | nt | -2 | 6 | 5 | 1 | i
> COc1ccc(C2(c3ccc(OC)cc3)NC(=O)N(CC(=O)NCC(C)c3ccccc3)C2=O)cc1 (stereo not given)
→ -9 | -6 | nt | nt | 0 | -2 | nt | nt
> COc1ccc(N2CS(=O)CC2=O)cc1 (stereo not given)
→ -2 | -10 | 0 | -8 | 3 | 5 | 1 | i
> O=C(Nc1ccccc1)Nc1ccc2ocnc2c1
→ 7 | -23 | 5 | -5 | -7 | 2 | 13 | i
> C[C@H]1CN([C@@H](C)CO)C(=O)CCCn2nncc2CO[C@@H]1CN(C)S(=O)(=O)c1cccc(F)c1
→ nt | -7&-9 | 11 | nt | -1 | 2 | nt | nt
> O=C(O)CCN1C(=O)c2ccc(NC(=O)CSCc3ccccc3)cc2C1=O
→ -1 | nt | 3 | -2 | -4 | 3 | 4 | i
> CCOC(=O)CC1CCCCN1C(=O)CCCn1nnnc1CN1CCOCC1 (stereo not given)
→ 9 | -14 | -13 | -4 | -1 | -1 | 4 | nt
> O=C(CC(=O)Nc1ccccn1)Nc1ccccn1
→ -12 | -24 | -47 | -1 | 0 | 4 | -2 | i
> CC(NC(=O)CCc1nnc(C2CCCCC2)o1)c1ccc(F)cc1 (stereo not given)
→ -13 | nt | -1 | -6 | -1 | 2 | 3 | i
> CCC(=O)Nc1ccc(NC(=O)c2cc3ccccc3o2)cc1
→ -1 | -10 | nt | -9 | 6 | 0 | 2 | i
> CCCS(=O)(=O)N1CCC(C(=O)NCCCN2CCC(Cc3ccccc3)CC2)CC1
→ 1 | -17 | -16 | -6 | -3 | 2 | 8 | i
> CN(Cc1cnccn1)C(=O)CC1C(=O)NCCN1Cc1ccc(F)cc1Cl (stereo not given)
→ -13 | -12 | 0 | 5 | -1 | 1 | 5 | i
> Cc1cccnc1C(NC(=O)C1CCN(Cc2ccc(Oc3ccccc3)cc2)CC1)c1ccc(F)cc1 (stereo not given)
→ nt | -34 | 23 | nt | -5 | -13 | nt | nt
> Cc1cc[n+](-c2[nH]c(=O)sc2/C=N/N=C(\[O-])c2ccncc2)cc1C
→ 6 | -29 | 4 | 30 | -4 | 1 | 10 | i
> CCOC(=O)c1c(S(=O)(=O)NCC(C)c2ccccc2)c(C)n(C)c1C (stereo not given)
→ -9 | 0 | 4 | -4 | 0 | 2 | 5 | i
> CCNC(=O)NC(=O)C(C)Sc1ccc2c(c1)OCCO2 (stereo not given)
→ -1 | -23 | nt | -10 | 0 | 3 | -15 | nt
> COc1ccc(OC)c(S(=O)(=O)Nc2cccc(F)c2)c1
→ -1 | -20 | -25 | -4 | 5 | 2 | -5 | i

Full records from above:
Results for O=C(CC(=O)Nc1ccccn1)Nc1ccccn1 → CSC inhib: -12; Yeast UUG start: -24; Env fusion inh: -47; eIF4H FP inh: -1; MT1-MMP act inh: 0; MT1-MMP act inh RFP: 4; PABP FP inh: -2; Rce1 inhib: i
Results for O=C(O)CCN1C(=O)c2ccc(NC(=O)CSCc3ccccc3)cc2C1=O → CSC inhib: -1; Yeast UUG start: nt; Env fusion inh: 3; eIF4H FP inh: -2; MT1-MMP act inh: -4; MT1-MMP act inh RFP: 3; PABP FP inh: 4; Rce1 inhib: i

Compound activity deposited in PubChem BioAssay by several laboratories.
